Lassa entry inh: inhibitors of Lassa virus binding or cell entry; Lassa virus pseudotype entry inhibition, cell reporter; control for the full effect not named in the record; Potency, µM (series often up to 37.9 µM), without a hit: at the top dose activity change, negative = inhibition, usual class: inhibitors; hit rate 1.2% among 300,000; active means well fitted inhibition curve with a large enough effect; inconclusive means small, poorly fitted or top-dose-only effect, or effect the other way; inactive means flat fitted curve, though single readings scatter; tested in HEK293 cells; further: on the % scale 0 is the no-effect control and ±100 the full control effect; nearly all actives have a fitted effect of over 50% in size; luciferase read-out
NS1 function inh: inhibitors of influenza NS1 protein function; S. cerevisiae slowed by influenza A NS1, growth recovery by OD600; Potency, µM (highest dose often 46.1 µM), without a hit: top-dose activity, positive = more growth; hit rate 0.4% among 270,000; AID 2326; further: actives are rising curves; nearly all actives have a fitted effect of over 50% in size
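Read-out: OD600 growth recovery of NS1-expressing budding yeast. Cells grown overnight at 30C in -URA glucose medium, washed, resuspended and diluted 1:100 in 2% galactose assay medium, pH 6.0. Same strain lacking NS1 served as positive control.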
SARS PLP yeast: inhibitors of SARS-CoV papain-like protease in yeast; S. cerevisiae expressing SARS-CoV PLpro, growth rescue; control for the full effect not named in the record; Potency, µM (top dose mostly 32.9 µM), inactives show top-dose activity, positive = growth rescue; hit rate 0.19% among 330,000; AID 485353; further: 0% is about no effect; nearly all actives have a fitted effect of over 55% in size; growth read by luminescence after 48 h
RE007 growth inh: less growth of the S. pombe RE007 Vpr strain; S. pombe RE007 Vpr strain, BacTiter-Glo ATP luminescence, 24 h; control for the full effect not named in the record; Potency, µM (series often up to 92.2 µM), for the others: at the top dose activity change, negative = less growth; hit rate 0.21% among 360,000; AID 651644; active = well fitted falling curve with a large enough effect; inconclusive = small, poorly fitted or top-dose-only effect; inactive = no such curve, though single readings can be large or run the other way;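 further: on the % scale 0 is the no-effect control and ±100 the full control effect; nearly all actives have a fitted effect of over 50% in size; the assay follows cell death caused by Vpr and the record does not say whether a fall means rescue or toxicity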
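Fission yeast RE007 carrying one integrated HIV-1 vpr copy, seeded at OD 0.01 in PMG+AL medium with 23 nL pinned compound. Grown 24 h at 30 degrees; viability read by BacTiter-Glo luminescence after 5 min.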
Cruzain noTriton: blocks cruzain activity in detergent-free assay. purified cruzain, Z-FR-AMC fluorescence, no detergent. Potency, µM, for the others: max response, negative = inhibition, most hits filed as inhibitors. hit rate 2.3% among 200,000. AID 1476; active means well fitted curve in the direction sought with a large enough effect; inconclusive means small, poorly fitted or top-dose-only effect, or another doubt; inactive means no such curve, though single readings can be large; an effect the other way counts as inactive or inconclusive;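 further: plate controls were enzyme without inhibitor for no effect and buffer without enzyme for full effect; nearly all actives have a fitted effect of over 40% in size; top concentration of the series not given in the record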
Target sequence (P25779 123-467 limits assumed): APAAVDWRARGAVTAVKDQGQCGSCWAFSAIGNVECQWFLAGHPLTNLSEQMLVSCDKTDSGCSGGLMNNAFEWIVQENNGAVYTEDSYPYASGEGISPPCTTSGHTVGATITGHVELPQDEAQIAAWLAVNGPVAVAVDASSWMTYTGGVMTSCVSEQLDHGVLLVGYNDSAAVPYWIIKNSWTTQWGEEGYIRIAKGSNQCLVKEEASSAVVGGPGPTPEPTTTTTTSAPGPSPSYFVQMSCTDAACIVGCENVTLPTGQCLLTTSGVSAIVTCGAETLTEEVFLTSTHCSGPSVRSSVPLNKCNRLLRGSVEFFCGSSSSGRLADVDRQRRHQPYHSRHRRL
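Detergent-free condition (0.00005% Triton X-100) in acetate buffer pH 5.5 with DTT. 1.5 nM enzyme and compound were pre-mixed 15 min, then 2 uM Z-FR-AMC substrate added; reaction progress from fluorescence change between first and third reads (60 s).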
Marburg entry inh: blocks Marburg virus binding to or entry into cells | Marburg virus pseudotyped entry inhibition, cell reporter; control for the full effect not named in the record; about a third of the inactives were read at about 46 µM | hit rate 1.8% among 300,000 | Potency, µM (doses to about 37.8 µM), without a hit: at the highest dose activity change, negative = inhibition, hits mostly inhibitors; active = well fitted inhibition curve with a large enough effect; inconclusive = small, poorly fitted or top-dose-only effect, or effect the other way; inactive = flat fitted curve, though single readings scatter; tested in HEK293 cells; about a fifth of its hits are not listed in these tables; further: on the % scale 0 is the no-effect control and ±100 the full control effect; luciferase read-out
Cruzain Triton: blocks cruzain activity in presence of Triton detergent. P25779. purified cruzain, Z-FR-AMC fluorescence, 0.01% Triton. Potency, µM, for the others: max response, negative = inhibition, usual class: inhibitors. hit rate 0.43% among 200,000. AID 1478; active means well fitted curve in the direction sought with a large enough effect; inconclusive means small, poorly fitted or top-dose-only effect, or another doubt; inactive means no such curve, though single readings can be large; an effect the other way counts as inactive or inconclusive;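 further: plate controls were neutral wells for no effect and buffer without enzyme for full effect; nearly all actives have a fitted effect of over 40% in size; top concentration of the series not given in the record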
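15 min RT preincubation of 1.5 nM cruzain with compound, then 2 uM Z-FR-AMC added; kinetic AMC fluorescence, 60 s delta. Triton X-100 0.01%, pH 5.5.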
2A StopGo: FMDV 2A StopGo reporter, luciferase signal. human cells with a luciferase reporter of 2A StopGo recoding; control for the full effect not named in the record. Potency, µM (series often up to 57.9 µM), for the others: at the highest dose signal change, negative = less light. hit rate 1.2% among 410,000; active = well fitted falling curve with a large enough effect; inconclusive = small, poorly fitted or top-dose-only effect; inactive = no such curve, though single readings can be large or run the other way; tested in HEK293T cells; further: on the % scale 0 is the no-effect control and ±100 the full control effect; nearly all actives have a fitted effect of over 45% in size; luciferase light after 4 h
An asterisk follows results filed as active; ? = inconclusive; . = no result given; & = joins results of further samples; [ ] = another dose, or the depositor's remark. Unless noted, the call rests on the fitted dose curve; in most records, active means well fitted rising curve with a large enough effect; inconclusive means small, poorly fitted or top-dose-only effect; inactive means no such curve, though single readings can be large or run the other way. Potency means the concentration at half of the fitted maximal effect.

SMILES	Lassa entry inh	NS1 function inh	SARS PLP yeast	RE007 growth inh	Cruzain noTriton	Marburg entry inh	Cruzain Triton	2A StopGo
CCN(Cc1cn2cccnc2n1)C1CCCCC1	5%[46.1 µM]	.	-1%	-8%	.	10%[46.1 µM]	.	-9%
C[C@@H](NC(=O)c1nc[nH]c1C(=O)N[C@@H](CCCCNC(=O)OC(C)(C)C)C(=O)OC(C)(C)C)c1ccccc1	.	12%	0%	-4%	.	.	.	?
CC1CC(C)CN(CCCNC(=O)c2cc3c(s2)-c2ccccc2OC3)C1 (configuration not stated)	.	-8%	9%	-5%	.	.	.	-10%
CCCCn1c(CNC(=O)c2ccc(OC)cc2)nnc1SCC(=O)Nc1ccc(OC)cc1	-1%[46.1 µM]	.	.	.	10%	-28%[46.1 µM]	0.3%	15%
c1ccc(COc2ccc(CNCc3cccs3)cc2)cc1	18%	-55%	0%	9%	-2%	?	-2.5%	5%
CN(CP(=O)(O)CN(C)S(C)(=O)=O)S(C)(=O)=O	4%	?	-11%	17%	4%	?	2.1%	0%
ClCc1cc2ccccc2nc1Cl	-16%	4%	-3%	-5%	.	-6%[46.1 µM]	.	28µM*
CCOC(=O)CSc1nnc(-c2ccc(S(=O)(=O)N3CCOCC3)cc2)n1-c1ccccc1	-2%	-10%	-2%	-2%	?	?	11%	-20%
CC1(OC(=O)C2CCCC2)C(=O)C=C2C=C3CCCCN3C=C2C1=O (configuration not stated)	.	-25%	-6%	6%	.	-7%&-7%[14.2 µM]	.	0%
CCOC(=O)N1CCN(S(=O)(=O)c2ccc(C(=O)N(CCCN(C)C)c3nc4ccc(OC)cc4s3)cc2)CC1	.	-7%	3%	5%	.	.	.	-18%
COC(=O)c1nnn(-c2nonc2N)c1CSCCO	10%	-12%	2%	16%	-3%	3%	2.2%	0%
CN(C)c1ccc(NC(=O)CN2C(=O)CC(c3ccccc3)=Nc3ccccc32)cc1	-16%	6%	-5%	-15%	-14%	-4%	2.1%	-22%
CN(CCO)c1cnccn1	-7%	-1%	0%	-4%	.	-30%[46.1 µM]	.	-9%
CCCCN(CCCNC(=O)c1cc(Nc2ccc(OC)c(OC)c2)nc2ccccc12)Cc1ccccc1	?	.	.	.	-3%	?	-8.6%	-10%
CCOC(=O)C(C)/C(C)=N/NC(=O)CCC(=O)Nc1cc(C)ccc1C (configuration not stated)	-27%	2%	0%	-3%	.	4%[46.1 µM]	.	-10%
CCN1/C(=C/C=C/c2oc3ccc4ccccc4c3[n+]2CC)Oc2ccc3ccccc3c21	?	-78%	-5%	13µM*	.	?	.	-24%
CN(C)C(=O)CSc1nnc(Cc2ccc3c(c2)OCO3)o1	25%	-2%	0%	-4%	.	-8%	.	10%
COCCn1c(C)cc2c(c1=O)C(c1ccco1)C(C#N)=C(N)O2 (configuration not stated)	-1%	0%	10%	-3%	-7%	3%	2.0%	5%
Cn1cc(CN2CCC(C(=O)Nc3cccc(-c4cccc(F)c4)c3)CC2)cn1	.	17%	7%	10%	.	.	.	-12%
CCN(CC)c1ccc(S(=O)(=O)N2CCOCC2)cc1NC(=O)Nc1ccccc1	1%	.	0%	-14%	.	?	.	-15%
Cc1cccc(C(=O)Oc2ccc(/C=N/NC(=O)c3ccccc3O)cc2)c1	15%	-16%	12%	3%	8%	?	-9.0%	?
CCC(C)(C)NC(=O)C(c1cccn1C)N(C(=O)Cn1nnc2ccccc21)c1ccc(OC)cc1OC (configuration not stated)	-4%	-9%	11%	-2%	?	-19%	-1.1%	27%
COC(=O)CC(c1ccc(OC)c(OC)c1)c1ccc(OC)c(OC)c1	-5%[46.1 µM]	2%	1%	1%	.	7%[46.1 µM]	.	-2%
O=C(NCCCn1ccnc1)c1cc(-c2cccs2)on1	24%	13%	1%	4%	-2%	5%	-6.6%	68%[activator]
Cc1cc2ccccc2n2c(SCC(=O)Nc3ccc(S(=O)(=O)N4CCCCC4)cc3)nnc12	?	9%	17%	2%	?	?	-4.8%	-2%

More compounds
SMILES	Lassa entry inh	NS1 function inh	SARS PLP yeast	RE007 growth inh	Cruzain noTriton	Marburg entry inh	Cruzain Triton	2A StopGo
COc1ccc(NC(=O)c2c(NCc3ccc(C)o3)sc3c2CCC(C)C3)c(OC)c1 (configuration not stated)	-18%[46.1 µM]	.	.	.	-3%	.	-11%	7%
Cc1ccc(Cl)c(NC(=O)CCl)c1Cl	?	.	2%	7%	.	6.3µM*	.	-19%
CCOC(=O)C1(Cc2cccc(F)c2)CCN(Cc2c(C)nn(CC)c2C)CC1	.	-5%	0%	-6%	.	.	.	?
CC(C)CNS(=O)(=O)c1ccc(N2CCCCS2(=O)=O)cc1	20%[46.1 µM]	.	.	.	5%	.	-0.4%	13%
c1ccc2c(c1)Cc1cc3ccccc3nc1-2	?	-52%	-2%	-19%	-12%	?	-18%	8%
CN(C)c1ccc(NC(=O)Cn2nnc3sc4c(c3c2=O)CCC(C(C)(C)C)C4)cc1 (configuration not stated)	?	.	.	.	-28%	-2%[46.1 µM]	-4.3%	0%
CSc1nc2nc(-c3cccc(C(F)(F)F)c3)ccn2n1	1%	.	-1%	-9%	.	-9%[46.1 µM]	.	-1%
COC(=O)Cc1ccc(OCC(=O)Nc2ccc(OC(F)(F)F)cc2)cc1	-9%	-12%	-48%	-25%	-9%	-18%	-3.8%	-8%
Brc1ccc(C2=CC(c3ccco3)n3nnnc3N2)cc1 (configuration not stated)	7%	4%	0%	-12%	.	18%	.	4%
CCOc1ccc(NC(=O)CN(C)C(=O)c2cc([N+](=O)[O-])ccc2Sc2ccccc2)cc1OCC	-22%	.	.	-1%	.	?	.	-17%
Cc1cc(/C=N/NC(N)=S)c(C)n1-c1ccc(Br)cc1	?	.	?	26%	.	?	.	-18%
CC(=O)c1cccc(NC(=O)c2ccncc2)c1	7%	-4%	1%	16%	-9%	?	1.6%	-4%
CCCCCCCCCCCCCCCC(=O)NCCO	1%	0%	.	-3%	1%&-13%&-13%&1%	-8%&-8%&-8%&-8%&-8%&20%&-8%&-8%&-8%&-8%&-8%	-3.1%&5.1%&1.3%&1.9%	-14%
COc1cc(C(=O)Nc2ccc3c(c2)C(=O)c2ccccc2C3=O)cc(OC)c1OC	-2%	-2%	0%	5%	-1%	?	-1.2%	-4%
CCOC(=O)c1cc(C)[nH]c(=S)c1C#N	0%	7%	3%	59%	-8%	?	1.0%	-27%
CC(C)CN(C(=O)COC(=O)CCC(=O)c1ccc(F)cc1)c1c(N)n(Cc2ccccc2)c(=O)[nH]c1=O	-1%	.	5%	-8%	.	3%	.	3%
Cc1ccc(C2=C/C(=C/c3cccs3)C(=O)O2)cc1	?	6%	-23%	-24%	-11%	?	-11%	5%
Cc1ccc(/C=C/c2onc(C)c2S(=O)(=O)N2CCC(C(=O)Nc3ccccc3C(F)(F)F)CC2)cc1	-10%[46.1 µM]	.	.	.	-1%	.	-0.4%	-5%
Cn1cnnc1SCC(=O)Nc1cc(S(=O)(=O)N2CCCCCC2)ccc1Cl	3%	-1%	-2%	-11%	2%	?	1.5%	18%
COc1ccccc1C(=O)Nc1ccnn1C1CCN(Cc2cnn(C)c2C)CC1	?	-13%	-3%	-3%	.	1%	.	-9%
Cc1nc(-c2ccccc2Cl)sc1C(=O)/C=C/N(C)C	.	9%	0%	-4%	.	.	.	79%[activator]
O=c1[nH]c(=O)c2cc3ccccc3nc2[nH]1	13%	.	.	3%	.	?	.	-7%
Clc1ccc(C2CC(c3ccccc3)Nc3ncnn32)cc1 (configuration not stated)	.	-11%	-5%	-11%	9%	.	0.2%	-8%
COc1ccc(NC(=O)NCCCN2CCN(c3ccccc3F)CC2)cc1	7%	-2%	1%	13%	.	-1%[46.1 µM]	.	0%
CC(=O)Oc1ccc(C(=O)O)cc1OC(C)=O	6%	-3%	1%	-6%	-16%	4%	0.7%	-29%

Additional results.
SMILES	Lassa entry inh	NS1 function inh	SARS PLP yeast	RE007 growth inh	Cruzain noTriton	Marburg entry inh	Cruzain Triton	2A StopGo
CCOc1ccc(C(=O)OCC(=O)NC(C)C)cc1	?	.	0%	0%	.	5%[46.1 µM]	.	-9%
CC(=O)c1ccc(N=C2NC(=O)C(CO)(CO)S2)cc1	.	-1%	1%	17%	.	-7%	.	-11%
O=C(c1ccc(F)c([N+](=O)[O-])c1)N1CC2CC(C1)c1cccc(=O)n1C2 (configuration not stated)	.	5%	-1%	3%	.	.	.	-2%
O=[N+]([O-])c1cccc(-c2n[nH]c(=S)n2Cc2ccccc2)c1	5%	5%	12%	1%	7%	15%	-1.4%	-25%
COCCN(C(=O)COC(=O)Cc1cccc(OC)c1)c1c(N)n(Cc2ccccc2)c(=O)[nH]c1=O	?	.	-6%	12%	.	23%	.	-24%
CCCCn1c(N)c(N(CC(C)C)C(=O)c2cccc(S(=O)(=O)N(CC)c3ccccc3)c2)c(=O)[nH]c1=O	-14%	.	.	6%	.	-21%	.	-1%
COc1ccc(NC(=O)c2ccccc2Oc2ccccc2)c(OC)c1	.	-34%	-9%	1%	.	.	.	-24%
COc1cc(CNCc2ccccc2)cc(Cl)c1OC	-18%[46.1 µM]	-2%	-1%	-14%	.	?	.	-22%
COc1ccccc1NC(=O)c1sc2nc(N3CCOCC3)c3c(c2c1N)CCCC3	-7%	-37%	-3%	-2%	.	14%	.	0%
CCCC(=O)OCC[N+](C)(C)C	-6%	16%	2%	10%[18.4 µM]	2%	1%&1%&1%&1%	1.4%	-23%&6%
NCCc1c(-c2ccccc2)n(-c2ccccc2)c2ccccc12	-28%[46.1 µM]	.	-4%	16%	.	13µM*	.	-23%
Cc1noc(C)c1C(=O)OCC(=O)N(C)C1CCS(=O)(=O)C1 (configuration not stated)	5%	.	-2%	1%	.	-18%[46.1 µM]	.	11%
CCCCOc1ccc(C2=NC(c3ccccc3)=Nc3ccc(OC)cc3N2)cc1	-2%[46.1 µM]	.	.	.	7%	-27%[46.1 µM]	-1.2%	0%
CC(C)Nc1cc(C(C)(C)C)nc2c(-c3ccccc3)cnn12	-7%	1%	0%	-20%	.	-21%	.	52%[activator]
CN(CC(=O)NCc1ccccn1)S(=O)(=O)c1ccc2ccccc2c1	7%[46.1 µM]	-3%	0%	8%	.	23%[46.1 µM]	.	20%
CC(=O)NC(CC(=O)N1CCN(C(C)=O)CC1)c1ccccc1 (configuration not stated)	.	-4%	-4%	-6%	.	.	.	0%
COc1cc2c(cc1OC)C(c1cc(Br)ccc1O)N(C(C)=O)CC2 (configuration not stated)	1%	.	.	30%	.	8%	.	-17%

Screens as filed in PubChem BioAssay.
